gsp agonist = agonists of gsp mutant (McCune-Albright syndrome); Potency, µM (doses to about 76.9 µM), for inactives: at the highest dose activation (cAMP increase), hits mostly activators; AID 624287; gsp mutant cells, cAMP HTRF, 30 min; control for the full effect not named in the record; 340,000 tested, 0.13% active; active = well fitted activation curve with a large enough effect; inconclusive = small, poorly fitted or top-dose-only effect, or another doubt; inactive = no such curve, though single readings can be large or run the other way; cell line not stated here;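 further: phosphodiesterase inhibitor Ro 20-1724 added with compounds to block cAMP breakdown; potency means the concentration at half of the fitted maximal effect; nearly all actives have a fitted effect of over 60% in size; about a fifth of the inactives were tested at one dose only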
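Cells stably selected in G418 were plated at 2000/well, grown 16-24 hr, then given compounds in DMSO with the PDE inhibitor […] (300 uM solution added) for 30 min at 37C; cAMP was read by HTRF.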
CtBP-E1A blk = CtBP/E1A binding inhibition; AlphaScreen GST-E1A/His-CtBP binding, 1536-well; hits give low values; control for the full effect not named in the record; activity change, % (concentration not given with the values); 340,000 tested, 0.49% active; AID 651724; in the data active means activity change below about -65%; inconclusive means about -30% to -65%; inactive means above about -30%; further: on the % scale 0 is the no-effect control and ±100 the full control effect
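In 5 uL wells, 23 nL compound meets equimolar GST-E1A and His-CtBP (5X stock 125 nM each) for 2 h, 37 °C. Beads (5X, 50 ug/mL) then 1 h, 37 °C, dark.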
D2 ag = activates the human D2 dopamine receptor; P14416; DiscoveRx PathHunter D2 beta-arrestin, luminescence, 90 min; 100% = 57 uM dopamine signal; activation, % (concentration not given with the values); 360,000 tested, 0.084% active; AID 624465; in the data active = activation above about 40%; inconclusive = about 15% to 40%; inactive = below about 15%; further: compound concentration not given in the record; the text of the record calls up to 30% inactive
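DiscoveRx PathHunter D2 beta-arrestin cells (2,100/well) attached overnight, then compound-stimulated 90 min at 37 C in HBSS/10 mM HEPES/0.1% Tween-20 buffer; beta-galactosidase complementation read by luminescence after 1 h at ambient temperature. Dopamine 57 uM final (EC100) as control.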
gsp antagonist = gsp mutant antagonism; gsp-mutant cells, cAMP HTRF, 30 min; control for the full effect not named in the record; Potency, µM (series often up to 76.9 µM), for the others: at the highest dose activity change, negative = inhibition, hits mostly inhibitors; 340,000 tested, 0.4% active; active = falling curve of any shape with a large fitted effect; inconclusive = falling curve, mostly with a smaller effect; inactive = flat or rising curve; cell line not stated here;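 further: intracellular cAMP measured with PDE inhibitor Ro 20-1724 present during compound exposure; potency means the concentration at half of the fitted maximal effect; on the % scale 0 is the no-effect control and ±100 the full control effect; nearly all actives have a fitted effect of over 65% in size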
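Cells, 2000/well, grown 16–24 h in DMEM 10% FBS with 0.5 mg/ml G418, then compounds plus […] (300 uM addition stock), 30 min at 37C. cAMP read by HTRF (cAMP-d2 and anti-cAMP antibody-K in lysis buffer) after 30 min RT.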
Six1-Eya2 inh = blocks human Six1 binding to Eya2; Q15475+O00167; AlphaScreen GST-Six1/His-Eya2 binding, biochemical; hits give low values; control for the full effect not named in the record; activity change, % (no concentration beside the values); 360,000 tested, 0.56% active; in the data active = activity change below about -65%; inconclusive = about -30% to -65%; inactive = above about -30%; further: on the % scale 0 is the no-effect control and ±100 the full control effect; compound concentration not given in the record
Target sequence (O00167 whole entry, looked up): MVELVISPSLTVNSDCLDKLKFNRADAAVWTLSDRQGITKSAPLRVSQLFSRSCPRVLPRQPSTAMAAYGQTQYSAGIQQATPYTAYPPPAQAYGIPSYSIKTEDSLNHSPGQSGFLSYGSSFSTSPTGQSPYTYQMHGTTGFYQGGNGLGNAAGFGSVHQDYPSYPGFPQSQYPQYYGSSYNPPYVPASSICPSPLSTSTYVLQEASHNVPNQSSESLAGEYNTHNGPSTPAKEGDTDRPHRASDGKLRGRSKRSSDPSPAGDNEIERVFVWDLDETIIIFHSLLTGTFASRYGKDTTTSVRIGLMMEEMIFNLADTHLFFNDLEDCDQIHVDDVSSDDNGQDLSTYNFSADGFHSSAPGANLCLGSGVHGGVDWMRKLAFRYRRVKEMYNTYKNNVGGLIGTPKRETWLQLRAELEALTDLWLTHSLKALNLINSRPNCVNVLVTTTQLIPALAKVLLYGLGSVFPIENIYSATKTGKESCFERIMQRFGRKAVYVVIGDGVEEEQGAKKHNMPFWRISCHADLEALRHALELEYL
Target sequence (Q15475 whole entry, looked up): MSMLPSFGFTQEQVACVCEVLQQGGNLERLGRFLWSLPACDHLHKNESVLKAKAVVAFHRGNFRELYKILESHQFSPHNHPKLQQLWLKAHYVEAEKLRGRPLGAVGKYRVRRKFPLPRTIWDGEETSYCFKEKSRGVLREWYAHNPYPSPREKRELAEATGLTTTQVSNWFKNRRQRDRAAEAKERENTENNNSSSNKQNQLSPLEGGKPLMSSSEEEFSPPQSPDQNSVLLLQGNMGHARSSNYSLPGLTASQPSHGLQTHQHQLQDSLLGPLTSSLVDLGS
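Homogeneous AlphaScreen proximity assay pairing GST-Six1 with His-tagged Eya2 (added as 5X mix: 250 nM and 500 nM) in 50 mM Tris pH 8.0, 300 mM NaCl, 1 mM TCEP. Glutathione donor and nickel acceptor beads; 1 h, 37 °C, dark.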
D2 PAM = human D2 receptor positive allosteric modulation. P14416. DiscoveRx D2 beta-arrestin cells, luminescence, 90 min; 100% = 57 uM dopamine signal. potentiation, % (concentration not given with the values). 360,000 tested, 0.23% active; active = potentiation of 50% or more; inconclusive = 30% to 50%; inactive = 30% or less;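 further: compound concentration not given in the record; tested on top of an EC20 dose of dopamine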
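D2 cells co-treated with compound plus 50 nM dopamine (EC20) for 90 min at 37 deg C to detect potentiation. Beta-arrestin recruitment was read as enzyme-fragment luminescence after 1 h at ambient temperature. Full response was set by 57 uM dopamine.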
Numbers without * were called inactive; ? = inconclusive; . = no result given; [ ] = dose if it differs, or a comment.

SMILES | gsp agonist | CtBP-E1A blk | D2 ag | gsp antagonist | Six1-Eya2 inh | D2 PAM
CCCOc1ccc(C(=O)NCC(c2ccco2)N(C)C)cc1 (stereo not given) | -32%[inhibitor] | 7 | -4.1 | 12% | 2 | -17
Clc1ccc(OCCCn2ccnc2)c(Br)c1 | 3% | -1 | 1.6 | 7% | -2 | 0
CCOC(=O)c1nc2ccccc2s1 | ? | -1 | 0.3 | 2% | 2 | -23
Cc1nn(-c2ccccc2)c2[nH]c(=O)c(CNc3ccc(N4CCOCC4)cc3)cc12 | 26% | -69* | -1.1 | -17% | -70* | 15
CNC(=O)CSc1nnc(SCCC(=O)O)s1 | -37% | 5 | -1.7 | 8% | -1 | -14
CC(NC(=O)C(C)N1C(=O)C2C3CC(C(Br)C3Br)C2C1=O)c1ccccc1 (stereo not given) | ? | 8 | 1.4 | 9% | 2 | 10
Cc1ccc(Oc2cnn(-c3ccccc3)c(=O)c2Br)cc1 | 7%[15.4 µM] | -6 | -3.7 | -4% | 12 | -8
CC(C)(C)c1ccc(C(=O)NC2CCS(=O)(=O)C2)cc1 (stereo not given) | -3%[15.4 µM] | 1 | -4.9 | 1% | 2 | -9
COc1cccc(C(=O)CN2CCC(NC(=O)NC3CCCCC3)CC2)c1 | 34% | 1 | -1.8 | 9% | 3 | -11
O=C(CNC(c1ccccc1)c1ccccc1)NCc1ccccc1Cl | ? | 12 | 3.5 | -22% | 7 | -3
CC(C)Nc1nc(NC(C)(C)C)nc(Oc2ccc(=O)n(-c3ccccc3)n2)n1 | 4% | 6 | -5.5 | -9% | 11 | 19
O=C(Nc1ccc(O)c2c(=O)cc(-c3ccccc3Cl)oc12)c1ccccc1Cl | 12% | . | -1.1 | 2% | 1 | -6
CC1CN(S(=O)(=O)c2ccc(C(=O)Nc3nnc(-c4ccccn4)o3)cc2)CC(C)O1 (stereo not given) | 10% | -13 | -1.5 | -19% | -10 | -6
O=C(Cn1cnc2c(cnn2-c2ccc(F)cc2)c1=O)NCc1ccco1 | 19% | 5 | 0.1 | 8% | -3 | -4
COc1cccc(NC(=O)c2sc(Cl)nc2C)c1 | -8% | 0 | 0.1 | 0% | 15 | -1
CC(NS(=O)(=O)c1ccccc1)C(=O)Nc1ccc2c(c1)OCCO2 (stereo not given) | 7% | 6 | -0.3 | 6% | 1 | 6
CC(C)(C)c1ccc(C(=O)Nc2ccc(F)cc2)s1 | 17% | 12 | -1.9 | 2% | 7 | -14
CCn1c(=O)c2cc(C(=O)Nc3cccc(C(C)=O)c3)sc2c2ccccc21 | 14% | -1 | -2.5 | -26% | -3 | -8
CC(OC(=O)C1CCC(=O)N1)C(=O)Nc1cc(Cl)cc(Cl)c1 (stereo not given) | 9% | -8 | -0.5 | 5% | 1 | -17
Cc1ccc(/C=C/C(=O)Nc2cccc3ncccc23)o1 | 3% | -6 | 2.5 | -6% | -4 | -9
COc1ccccc1CCC(=O)Nc1ccc2c(c1)CN(CCCn1cccn1)CC2 | 11% | -2 | -2.1 | -5% | 0 | -30
Cc1cc(NC(=O)CSc2nc3c(C)cccc3cc2C#N)no1 | 15%[15.4 µM] | 19 | 1.3 | -27% | 6 | 9
CC(C)C[C@@H](CN1CCC[C@@H]1CN1C(=O)C(=O)NC[C@@H]1Cc1ccccc1)N1C[C@H](Cc2ccccc2)N(CC2CCCCCC2)C(=O)C1=O | . | 4 | -1.5 | ? | 0 | -4
CCOc1ccc2nc(N(CCCN(C)C)C(=O)c3ccc(S(=O)(=O)N4CCCC4)cc3)sc2c1 | 26% | -13 | 1.2 | -18% | -21 | -15
CCCSc1nc(N)cc(=O)[nH]1 | -62%[inhibitor] | 56 | -0.1 | 2% | 17 | -3

Profiles from above.
`CCn1c(=O)c2cc(C(=O)Nc3cccc(C(C)=O)c3)sc2c2ccccc21` as listed: gsp agonist: 14%; CtBP-E1A blk: -1; D2 ag: -2.5; gsp antagonist: -26%; Six1-Eya2 inh: -3; D2 PAM: -8
`O=C(Nc1ccc(O)c2c(=O)cc(-c3ccccc3Cl)oc12)c1ccccc1Cl` as listed: gsp agonist: 12%; CtBP-E1A blk: .; D2 ag: -1.1; gsp antagonist: 2%; Six1-Eya2 inh: 1; D2 PAM: -6

The main list resumes with the four entries that preceded the break.
SMILES | gsp agonist | CtBP-E1A blk | D2 ag | gsp antagonist | Six1-Eya2 inh | D2 PAM
Cc1cc(NC(=O)CSc2nc3c(C)cccc3cc2C#N)no1 | 15%[15.4 µM] | 19 | 1.3 | -27% | 6 | 9
CC(C)C[C@@H](CN1CCC[C@@H]1CN1C(=O)C(=O)NC[C@@H]1Cc1ccccc1)N1C[C@H](Cc2ccccc2)N(CC2CCCCCC2)C(=O)C1=O | . | 4 | -1.5 | ? | 0 | -4
CCOc1ccc2nc(N(CCCN(C)C)C(=O)c3ccc(S(=O)(=O)N4CCCC4)cc3)sc2c1 | 26% | -13 | 1.2 | -18% | -21 | -15
CCCSc1nc(N)cc(=O)[nH]1 | -62%[inhibitor] | 56 | -0.1 | 2% | 17 | -3
CCOC(=O)c1c(C)[nH]c(C(=O)COC(=O)CNC(=O)c2ccc(Br)cc2)c1C | -24% | -20 | -2.6 | -2% | -16 | -6
CC1CCc2c(sc3nc(CSc4ncn[nH]4)[nH]c(=O)c23)C1 (stereo not given) | -18% | -6 | -1.1 | ? | -1 | 6
CC(C)Nc1nnc(SC(C)C(=O)Nc2ccc(N3CCOCC3)cc2)s1 (stereo not given) | 29% | . | -2.9 | -7% | 1 | -2
O=[N+]([O-])c1cccc(-c2ccc(/C=N/NC(=S)Nc3ccccc3)o2)c1 | ? | -19 | 1.1 | -11% | -22 | -4
Cc1ccc(-c2nnc3ccc(SC(C)C(=O)O)nn23)cc1 (stereo not given) | 10µM* | 2 | -6.2 | 15% | -4 | 1
CCc1nnc(NC(=O)[C@@H](NS(=O)(=O)c2ccc3c(c2)OCCO3)C(C)C)s1 | -2% | 1 | 1.3 | 2% | 7 | -3
COc1ccc([C@H]2C[C@@H](O)[C@H](n3cc(-c4ccc(F)cc4)nn3)CN2C(=O)C2CCCCC2)cc1 | -68%[inhibitor] | 3 | -11 | . | 7 | 2
COc1ccc(-c2noc(CCC(=O)N3CCN(c4ccccc4C(F)(F)F)CC3)n2)cc1 | . | 2 | 0.9 | -23% | 3 | .
CCC(C)(C)n1nnnc1C(c1ccc2ncccc2c1)N1CCCCCC1 (stereo not given) | -13% | 3 | 0.9 | 5% | -1 | -24
Cc1csc2nc(CNS(=O)(=O)N(C)C)cn12 | -2% | 3 | -2.5 | 8% | 4 | -2
O=C(NCCCO)C(=O)c1c(-c2ccccc2)cc2ccccn12 | 31% | 0 | 1.7 | -2% | 2 | -4
CN(Cc1ccccc1F)c1cc2c(c3c1ccn3C)C1CCC2O1 (stereo not given) | . | ? | -3.5 | . | ? | -2
CC(c1ccccc1)C1CC(=O)N(C2CCCCC2)C1=O (stereo not given) | 2% | -2 | -1.0 | 2% | 11 | -7
Cc1ccc(S(=O)(=O)NCCCCC(NC(=O)OC(C)(C)C)C(=O)O)cc1 (stereo not given) (tested in a mixture with another compound) | . | -5 | -6.2 | 9% | -1 | -6
O=C(c1n[nH]c2ccccc12)N1CCN(S(=O)(=O)c2ccccc2)CC1 | 7% | 0 | -0.6 | -23% | -2 | 1
O=C(O)CCNS(=O)(=O)c1cccc2nsnc12 | . | 3 | 1.0 | 9% | -2 | -4
O=C(COc1ccccc1[N+](=O)[O-])N1CCN(S(=O)(=O)c2ccccc2)CC1 | 5%[15.4 µM] | 0 | -5.8 | -6% | -3 | 5
Clc1ccc(C(c2nnnn2C2CCCCC2)N(Cc2cccnc2)Cc2ccco2)cc1 (stereo not given) | -7% | 3 | 0.5 | -8% | -1 | -10
O=C(C(Br)=Cc1ccccc1)c1ccccc1 | 17% | -6 | -4.6 | -8% | 4 | -33
CC(NCC(=O)Nc1cc(S(=O)(=O)N2CCOCC2)ccc1Cl)c1ccc(Cl)cc1Cl (stereo not given) | -3%[15.4 µM] | -1 | -3.8 | -25% | -2 | 5
CCOc1ccc(NC(=O)CCC(=O)NNC(=O)COc2ccc(C)cc2Br)cc1 | -6% | 10 | 1.2 | 5% | 15 | 7
COc1ccc(NC(=O)Nc2ccc3nonc3c2)cc1 | 9%[15.4 µM] | -3 | -1.2 | 7% | -4 | -11
CC(=O)c1cccc(NC(=O)C2C(c3ccccc3)C2(Cl)Cl)c1 (stereo not given) | -34%[inhibitor] | -7 | -4.4 | -23% | -1 | -9
CCOc1ccc(N2CC(C(=O)Nc3cccc(S(=O)(=O)NC4=NCCC4)c3)CC2=O)cc1 (stereo not given) | 29% | 1 | -1.1 | 8% | 1 | -7
COc1ccc(NC(=O)C2Cc3c(-c4ccc5c(c4)OCO5)ccnc3O2)cc1 (stereo not given) | . | -7 | 0.9 | . | -14 | -10
(list continues)
SMILES | gsp agonist | CtBP-E1A blk | D2 ag | gsp antagonist | Six1-Eya2 inh | D2 PAM
Nc1nnc(CSCc2ccc(Cl)cc2)s1 | 0% | 5 | -0.6 | 3% | 2 | -17
COc1ccc(S(=O)(=O)N2CCC(C(=O)NC3CC3)CC2)cc1C | -1%[15.4 µM] | -5 | -0.4 | 5% | 3 | -2
CCOc1ccc(CC(=O)OCn2nnc3ccccc3c2=O)cc1 | 0% | -1 | -1.3 | 4% | 6 | -7
Cn1cnnc1SCC(=O)n1c2ccccc2c2ccccc21 | -18% | -1 | -2.9 | -3% | -2 | -8
CCOC(=O)c1c(CSc2nc(C)cc(C)c2C#N)n(C)c2cc(Br)c(OC(C)=O)cc12 | 17%[15.4 µM] | 6 | -4.4 | -1% | 4 | -3
COC(=O)CN1CC(=O)N(c2ccccc2)C1=S | -3%[15.4 µM] | 11 | -3.0 | 15% | 0 | -7
CS(=O)(=O)N1CCC(C(=O)N2CCc3ccccc3C2)CC1 | -69%[inhibitor] | -6 | 0.0 | 9% | -1 | -2
COc1ncnc2c1NC(=O)CS2 | -22% | -1 | -1.9 | 7% | 2 | 3
CCOC(=O)c1c(C)[nH]c(C(=O)COC(=O)C23CC4CC(CC(Cl)(C4)C2)C3)c1C | ? | -18 | 0.0 | 0% | -10 | -13
CCn1cc(/C=C(\NC(=O)c2ccccc2OC)C(=O)N2CCOCC2)c2ccccc21 | ? | 2 | -3.9 | . | -4 | -14
